Bioassay records: PubChem, ICCB-Longwood Screening Facility, Harvard Medical School
MgrA-DNA mod = S. aureus MgrA-DNA binding modulation. fluorescence polarization. inhibition, %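 (about 10 µg/mL by stock and volumes)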. 0.13% of 84,000 active;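 active = above 50% in either of two replicates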;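 note: 0% = protein plus DNA without compound and 100% = DNA alone without protein; higher means less MgrA bound to DNA so lower polarization; one replicate is shown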
Sa helicase inh = blocks Staphylococcus aureus DNA helicase; inhibition, %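 (tested at about 80 µM)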; purified S. aureus helicase, fluorescence unwinding assay; about half of the hits fall short of the stated cut; AID 485395; 0.05% of 120,000 active;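 active = both duplicates at 50% or more, or one of them with a favoured structure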;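 note: 0% = mean of negative control wells and 100% = mean of positive control wells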
* hit, by the source's call; . = not tested or not shown. The list is partial; rates above refer to the full screens.

SMILES	MgrA-DNA mod	Sa helicase inh
COc1ccc(Oc2ncccc2NC(=O)Nc2cccc(C(F)(F)F)c2)cc1	0.0	.
COc1cc(Cl)ccc1NC(=S)N(CCCN1CCOCC1)C1CCN(C(C)=O)CC1	.	6
O=S(=O)(Nc1cccnc1Oc1ccc(Cl)cc1)c1ccccc1	-1.8	.
O=C(O)c1cccc(-n2cccc2)c1	35	18
CCCCCC(=O)c1ccc(O)cc1O	0.7	6
CCCCC(=O)N1CC(=O)Nc2ccc(F)cc2C1c1ccccc1 (stereo unspecified)	.	8
Cc1cc(C)c(NC(=S)NC(=O)c2ccccc2)c(C)c1	-0.2	11
CCN1CCCC1CNc1ncnc2onc(-c3ccc(F)cc3)c12 (stereo unspecified)	.	5
C/C(CCc1ccc2c(c1)OCO2)=N\N=C1/NC(=O)CC(C(=O)O)S1 (stereo unspecified)	4.3	2
CCOC(=O)c1cc2c(ccn2-c2ccc(F)cc2)n1CC(=O)N1C(C)CCCC1C (stereo unspecified)	3.6	11

Overlap with the part before: 2 entries, followed by the next part.
SMILES	MgrA-DNA mod	Sa helicase inh
C/C(CCc1ccc2c(c1)OCO2)=N\N=C1/NC(=O)CC(C(=O)O)S1 (stereo unspecified)	4.3	2
CCOC(=O)c1cc2c(ccn2-c2ccc(F)cc2)n1CC(=O)N1C(C)CCCC1C (stereo unspecified)	3.6	11
COc1cc(C2C(C(=O)OC3CCCC3)=C(C)NC3=C2C(=O)CC(C)(C)C3)cc(Br)c1O (stereo unspecified)	-0.2	.
Cc1[nH]c(=S)[nH]c1Cc1ccccc1	.	1
COC(=O)CC1OC(=O)c2ccccc21 (stereo unspecified)	-3.5	4
NS(=O)(=O)c1ccc(NC(=O)Cn2ncc3c2-c2ccccc2OC3)cc1	.	22
O=C(COC(=O)c1cccs1)NC12CC3CC(CC(C3)C1)C2	0.9	7
CCCCCn1c(=O)c2ccccc2n2c(CN3C(=O)c4ccccc4C3=O)nnc12	.	3
COC(=O)c1ccc(OC)cc1OC(=O)COc1cccc(C)c1	.	6
CC1(C)NC(=S)N(c2nc3ccccc3s2)N1	-2.1	-3
Cc1nc2cc(-c3ccccc3)nn2c(C)c1CCC(=O)O	.	16
Cc1ccc(NC(=O)c2cc(N(C)C)ccc2[P+](=O)O)cc1	.	2
CCCn1nc(C(=O)N/N=C/c2ccc(O)cc2)c2ccccc2c1=O	.	19
CC1CN(C(=O)COc2ccccc2C#N)CC(C)O1 (stereo unspecified)	-1.6	-8
N#C/C(=N\Nc1ccccc1)C(=O)C1CC1	.	13
COc1ccc(C(CC(=O)O)CC(=O)O)cc1	.	4
Cc1c(CC(=O)O)sc2ccccc12	-3.2	.
c1ccc(CC2CCN(Cc3nnc(-c4ccc5c(c4)OCO5)o3)CC2)cc1	.	-32
CC(C)CNC(=O)C1CC(=O)N(Nc2ccccc2)C1 (stereo unspecified)	.	-11
CC(C)Sc1nnc(NC(=O)c2cc(Br)ccc2Cl)s1	.	14
CC(C)(C)NC(=O)C1Cc2ccccc2CN1S(=O)(=O)c1cccs1 (stereo unspecified)	.	-15
O=C(C1CCN(S(=O)(=O)c2ccc3[nH]c4c(c3c2)CCCCC4)CC1)N1CCCC1	.	-19
N#Cc1c(-c2ccccc2Cl)cc(C2CC2)nc1N	-1.2	1
CCCc1ccc(C(=O)CC#N)cc1	-1.4	-5
O=c1ccc(Cc2ccccc2Br)n[nH]1	-0.5	.
CC1=NN(C(=O)c2ccccc2)C(C)(O)C1(C)C (stereo unspecified)	0.5	-1
CN(CC(=O)Nc1sccc1C#N)Cc1ccccc1	.	-11
CCCNCc1nnc(-c2ccco2)o1	.	16
Cc1c(C)c(C)c(CSc2nnc(CC#N)n2C)c(C)c1C	-0.8	.
COc1ccccc1-c1nnc(SC(C)c2nc3ccccc3c(=O)[nH]2)n1C (stereo unspecified)	.	15
O=C(CC(C(=O)O)n1ccnc1)c1ccc(C2CCCCC2)cc1 (stereo unspecified)	17	-14
CC12CCC(c3c(C(F)(F)F)nc(N)nc31)C2(C)C (stereo unspecified)	-2.0	22
OCC1(CO)CSC(=NCc2ccc(F)cc2)N1	1.3	.
O=C(CCC(=O)n1ncc2ccc(Cl)cc21)NC1CCCc2ccccc21 (stereo unspecified)	0.9	1
CCOC(=O)c1nc(NCc2cccnc2)c2ccccc2n1	-0.5	6
O=C(Nc1ncc(C(F)(F)F)cc1Cl)c1cc2c(s1)CCC2	-1.0	8
O=C1CC(c2ccccc2)n2nc(N3C(=O)CCC3=O)nc2N1 (stereo unspecified)	0.0	15
Cc1cc(C(O)C(F)(F)F)c(C)n1CC(C)C (stereo unspecified)	.	-40
CCC(=O)N1N=C(c2ccc(OC)cc2)CC1c1ccccc1O (stereo unspecified)	.	-9
Cn1cccc1Cc1nnc(SCC(=O)NC2CCCC2)n1C	.	13
COc1ccc(CCNC(=O)CSc2cc(Cl)nc3ccc(C)cc23)cc1OC	0.3	-12
O=C(c1ccc(S(=O)(=O)N2CCOCC2)cc1)N1CCCC1	.	-17
O=C1CCCC2=C1C(c1ccc(N3CCOCC3)cc1)c1c([nH]c(=O)[nH]c1=O)N2 (stereo unspecified)	.	11
CC(C)(C)c1ccc(CC/C=N/O)cc1	.	-21
Cc1cccc(N(C)C(=O)Cn2ncc3c(=O)oc4ccccc4c32)c1	.	36
O=C1CCCC/C1=C/Nc1ccc2c(c1)OCO2	2.5	5
O=c1[nH]nc(-c2ccc(N3CCCCC3)c([N+](=O)[O-])c2)c2ccccc12	-0.3	.
CCOC(=O)c1ccc(N2CC3CCCCN3C2c2ccc(Cl)c(Cl)c2)cc1 (stereo unspecified)	-3.4	.
CCOC1(C(F)(F)F)NC(=O)N(c2ccc(OC)cc2)C1=O (stereo unspecified)	0.9	24
Brc1ccc(C2=CSC3=NCCN23)cc1	.	-21
COc1ccc(OCC(=O)Nc2ccc3oc(-c4ccncc4)nc3c2)cc1	-2.7	13
CC(C)=C1N=C(c2ccccc2)OC1=O	-0.9	-7

Other results follow:
SMILES	MgrA-DNA mod	Sa helicase inh
O=C1CC(c2ccccc2)=NO1	2.9	.
COc1nc(N)nc(SC)n1	1.3	.
CCCc1cc(C(=O)NC2CC2)cs1	-0.3	4
CCOc1ccccc1C(=O)NCCc1cn2ccc(C)cc2n1	-1.1	5
c1ccc(C2(Cn3ccc4ccccc43)OCCO2)cc1	3.2	-5
CCc1ccc(C2C(C(=O)OC)C(=O)CC(C)(O)C2C(=O)OC)cc1 (stereo unspecified)	.	-30
CC(C)(C)NC(=O)CS(=O)(=O)c1ccccc1	-2.0	3
COc1ccc2oc(C(=O)OCC(=O)NC3(C#N)CCCC3)c(C)c2c1	.	3
CSc1nc(C)c2c(n1)CCCC2	0.1	10
CC(C)(C)NC(=O)C1CC2CCCCC2CN1C(=O)c1ccno1 (stereo unspecified)	-1.5	.
O=C(Cc1cscn1)c1ccc(O)cc1O	.	-8
O=c1cc(CSc2nnc(Cn3nnc4ccccc43)o2)c2ccccc2[nH]1	2.4	1
O=c1c(=O)n(OCc2ccccc2)c2ccccc2n1O	.	-12
CN1C(=O)/C(=C2\SC(N)=NC2=O)c2ccccc21	.	-2
O=C(O)C1C2C=CC(C2)C1C(=O)O (stereo unspecified)	-0.5	.
NC(=O)CSc1ncnc2sc3c(c12)CCCC3	-1.0	19
Nn1c(=S)[nH]nc(Cc2ccco2)c1=O	11	18
CCCCNC(=O)Nc1ccn(C)n1	.	28
CCOc1cc(C=C2C(=O)NC(=S)NC2=O)ccc1OCCOc1ccccc1C	7.3	.
C=CCn1c(C(C)NC(=O)Cc2ccccc2)nc2ccccc21 (stereo unspecified)	.	-19
N#CCCN1N=C(c2ccccc2)CC1=O	.	8
O=C(CSc1nnc(-c2ccncc2)o1)N1c2ccccc2Sc2ccccc21	0.6	.
NNC(=O)COc1ccc2oc3c(c2c1)CCCC3	.	31
CCCN(CCC)S(=O)(=O)c1ccc(C(=O)NN)cc1	-0.7	.
O=C(Nc1ccc(N2CCOCC2)cc1)C1=NCCN1	.	12
COc1ccc(NCC(O)Cn2c3ccc(Cl)cc3c3cc(Cl)ccc32)c(OC)c1 (stereo unspecified)	3.0	9
CC(C)(C)NC(N)=S	.	-2
C(=N\c1c(-c2ccccc2)nc2n1CCS2)/c1ccccc1	.	-25
O=S(=O)(NCC(c1cccnc1)N1CCN(Cc2ccccc2)CC1)c1ccccc1 (stereo unspecified)	-1.8	0
Cc1cc(C(=O)OC(C)C(=O)Nc2ccc(Cl)cn2)c(C)o1 (stereo unspecified)	.	-9
COc1ccc(-c2cc(C(=O)O)c(C)o2)cc1OC	0.3	6
Cc1ccc(-c2nc3n(n2)C(=O)CC(c2ccco2)S3)cc1 (stereo unspecified)	.	-8
O=C(NCc1ccccc1)N1CCn2cccc2C1Cc1ccccc1 (stereo unspecified)	.	12
Cc1ccc(-n2nc(C)c(/C=N/N3CCOCC3)c2Cl)cc1	.	6
Cc1sc2nc(N)sc(=O)c2c1C	.	-12
O=C(Cn1c(=O)n2ncnc2c2c3c(sc21)CCCC3)c1ccccc1	-0.1	8
CN(c1ccccc1)C1CCCCC1NS(=O)(=O)c1ccccc1 (stereo unspecified)	.	16
CCOC(=O)/C(=C(\C)O)C1(C(C#N)C(N)=O)CCCCC1 (stereo unspecified)	.	-20
CCN1CN=C(SCc2ccc(Br)cc2)NC1	-0.5	.
O=C(NCCOc1ccccc1Cc1ccccc1)c1ccc2c(c1)OCO2	1.8	21
CC(C)(C)c1ccc(NC(=O)CSc2nnc(-c3cnccn3)s2)cc1	-0.9	.
COc1cccc(OCCn2cc(C(=O)c3cccs3)c3ccccc32)c1	.	-24
COC(=O)c1cnn(-c2ccccc2)c1N	0.2	10
CC(C)OC(=O)CSC1=C(C#N)C(c2ccco2)C2=C(CCCC2=O)N1 (stereo unspecified)	.	10
CC1=C(C)C(=O)C(NCC2CCCO2)=CC1=O (stereo unspecified)	.	3
CC(NC(=O)c1ccc(Br)o1)c1ccccc1 (stereo unspecified)	-0.7	2
Cc1cc(C)cc(OC2CCCCC2NS(=O)(=O)c2ccc(Cl)cc2)c1 (stereo unspecified)	2.5	4
CCc1nc2ccccc2[nH]1	-1.7	-19
Cc1ccc(N(C(=O)Cn2nnc(-c3ccc(C)o3)n2)C(C(=O)NC2CCCCC2)c2ccc(F)cc2)c(C)c1 (stereo unspecified)	0.2	16
Cc1cc(C)nc(NS(=O)(=O)c2ccc(NC(=O)CCN3C(=O)c4ccccc4C3=O)cc2)n1	-2.5	.

A different layout for 20 compounds above.
| smiles | MgrA-DNA mod | Sa helicase inh |
| --- | --- | --- |
| CCCCCC(=O)c1ccc(O)cc1O | 0.7 | 6 |
| CCCCC(=O)N1CC(=O)Nc2ccc(F)cc2C1c1ccccc1 (stereo unspecified) | . | 8 |
| Cc1cc(C)c(NC(=S)NC(=O)c2ccccc2)c(C)c1 | -0.2 | 11 |
| CCN1CCCC1CNc1ncnc2onc(-c3ccc(F)cc3)c12 (stereo unspecified) | . | 5 |
| C/C(CCc1ccc2c(c1)OCO2)=N\N=C1/NC(=O)CC(C(=O)O)S1 (stereo unspecified) | 4.3 | 2 |
| CCOC(=O)c1cc2c(ccn2-c2ccc(F)cc2)n1CC(=O)N1C(C)CCCC1C (stereo unspecified) | 3.6 | 11 |
| COc1cc(C2C(C(=O)OC3CCCC3)=C(C)NC3=C2C(=O)CC(C)(C)C3)cc(Br)c1O (stereo unspecified) | -0.2 | . |
| Cc1[nH]c(=S)[nH]c1Cc1ccccc1 | . | 1 |
| COC(=O)CC1OC(=O)c2ccccc21 (stereo unspecified) | -3.5 | 4 |
| NS(=O)(=O)c1ccc(NC(=O)Cn2ncc3c2-c2ccccc2OC3)cc1 | . | 22 |
| O=C(COC(=O)c1cccs1)NC12CC3CC(CC(C3)C1)C2 | 0.9 | 7 |
| CCCCCn1c(=O)c2ccccc2n2c(CN3C(=O)c4ccccc4C3=O)nnc12 | . | 3 |
| COC(=O)c1ccc(OC)cc1OC(=O)COc1cccc(C)c1 | . | 6 |
| CC1(C)NC(=S)N(c2nc3ccccc3s2)N1 | -2.1 | -3 |
| Cc1nc2cc(-c3ccccc3)nn2c(C)c1CCC(=O)O | . | 16 |
| Cc1ccc(NC(=O)c2cc(N(C)C)ccc2[P+](=O)O)cc1 | . | 2 |
| CCCn1nc(C(=O)N/N=C/c2ccc(O)cc2)c2ccccc2c1=O | . | 19 |
| CC1CN(C(=O)COc2ccccc2C#N)CC(C)O1 (stereo unspecified) | -1.6 | -8 |
| N#C/C(=N\Nc1ccccc1)C(=O)C1CC1 | . | 13 |
| COc1ccc(C(CC(=O)O)CC(=O)O)cc1 | . | 4 |

Following part:
SMILES	MgrA-DNA mod	Sa helicase inh
N#Cc1ccccc1NC(=S)NC(=O)c1cc(-c2ccco2)nc2ccccc12	.	1
CC1=C(C)C(=O)N(c2ccccn2)C1=O	-1.6	8
O=S(=O)(c1cccs1)N1CCC2(CC1)OCCO2	-2.4	.
Cc1ccc2[nH]c(=O)c(CNS(=O)(=O)c3ccccc3)c(-c3ccccc3)c2c1	.	14
C=C(C)C(=O)NNc1ccccc1	.	-11
COc1ccc(C2=NOC(C(=O)N3CCCCC3C)C2)cc1 (stereo unspecified)	-0.1	-8
Cc1cc(=O)[nH]c(SCc2nc3ccccn3c2Br)n1	.	3
CC(C)Oc1cccc(C(=O)NC(C)(C)C)c1	1.9	-23
CC(Oc1ccc(C(C)(C)C)cc1)C(=O)NCC1CCCO1 (stereo unspecified)	0.2	0
Cc1c(O)ccc2c(=O)c(-c3ccccc3)coc12	.	8
O=C(NCCCc1nc2ccccc2[nH]1)c1ccco1	-1.0	1
CC1CCN(C(=O)c2cc(=O)[nH]c3ccccc23)CC1	.	-2
CC(C)(Oc1ccc(Cl)cc1)C(=O)NCc1ccc2c(c1)CCO2	1.3	.
CCn1c(SC)nnc1C1CCN(C(=O)C(OC)c2ccccc2)CC1 (stereo unspecified)	-3.0	11
CCOC(=O)Cc1csc(NC(=O)CSc2nccn2C)n1	.	-9
CC(C)OC(=O)c1cc(N)c2c(-c3ccc(F)cc3)c(-c3cccs3)sc2n1	1.1	-2
O=C1CCN(C(=O)c2ccccc2)C2CCCCC12 (stereo unspecified)	2.0	-8
CCc1ccc(Nc2cc(C(=O)N3CCOCC3)c3ccccc3n2)cc1	.	-9
O=C(O)CCNc1ncnc2sc3c(c12)CCCC3	3.4	6
